Screening data deposited in PubChem by several laboratories.
T cruzi inh – T. cruzi replication inhibition | T. cruzi beta-gal in NIH3T3, luminescence, 90 h | inhibition, % (test concentration not listed) | hit rate 1.4% among 300,000;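 active means mean inhibition across valid replicates above about 55%, limit read from the data; inconclusive means mean below that limit but half or more replicates reach it; inactive means mean below it, under half of replicates reach it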;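 further: signal also drops with host cell toxicity which is not excluded here; 0% = plate median of DMSO wells and 100% = zero luminescence signal; higher percent means less beta-gal luminescence so fewer parasites; stock transfer was 50 nL into about 50 µL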
B2AR ag – human beta-2 adrenergic receptor agonism by FAP | P07550 | Am2.2-beta2AR cells, FAP receptor internalization, flow cytometry; reference of the scale not given here | response, % (concentration not given with the values) | hit rate 0.43% among 340,000;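 active means response above a set limit, near 3 SD of response in nonfluorescent compounds, cut at about 42% in these data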;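 further: stock transfer was 100 nL into about 11 µL; a reference agonist was the positive control; negative values mostly stem from fluorescent compounds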
Target sequence (P07550 whole entry, looked up): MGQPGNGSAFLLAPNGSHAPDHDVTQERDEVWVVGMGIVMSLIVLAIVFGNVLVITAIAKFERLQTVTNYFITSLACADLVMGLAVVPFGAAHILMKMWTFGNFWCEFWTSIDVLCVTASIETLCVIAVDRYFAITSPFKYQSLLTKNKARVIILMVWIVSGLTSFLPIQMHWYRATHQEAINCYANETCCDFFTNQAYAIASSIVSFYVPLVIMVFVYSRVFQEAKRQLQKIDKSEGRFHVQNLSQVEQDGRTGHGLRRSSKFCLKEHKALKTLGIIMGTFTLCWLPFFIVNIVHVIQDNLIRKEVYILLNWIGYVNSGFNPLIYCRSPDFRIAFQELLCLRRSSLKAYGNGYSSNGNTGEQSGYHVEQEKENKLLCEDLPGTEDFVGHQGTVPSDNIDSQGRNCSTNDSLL
UCH37 DUB inh – blocks the human deubiquitinase UCH37; inhibition, % (no concentration beside the values); hit rate 0.33% among 330,000; purified proteasome/UCH37, Ub-AMC cleavage fluorescence; Q9Y5K5; AID 588478;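 active means mean of two replicates above 20%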;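 further: 0% = compound-free wells with enzyme and 100% = wells lacking proteasome; stock transfer was 100 nL into about 20 µL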
Target sequence (Q9Y5K5 whole entry, looked up): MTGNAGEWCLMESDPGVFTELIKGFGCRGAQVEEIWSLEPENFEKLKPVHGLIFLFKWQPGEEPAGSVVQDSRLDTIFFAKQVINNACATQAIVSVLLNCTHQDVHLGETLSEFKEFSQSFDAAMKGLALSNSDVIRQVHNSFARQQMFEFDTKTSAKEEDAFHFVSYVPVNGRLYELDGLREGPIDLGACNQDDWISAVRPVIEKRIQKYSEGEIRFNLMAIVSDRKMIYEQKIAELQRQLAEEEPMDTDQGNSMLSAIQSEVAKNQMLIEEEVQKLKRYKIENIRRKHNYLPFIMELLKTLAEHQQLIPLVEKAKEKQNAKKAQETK
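Schedule: 30 min plus 25 min, room temperature / Material: human UCH37 within purified proteasomes / Technique: AMC fluorescence intensity at 355/460 nm / Buffer or medium: pH 7.4 Tris-HCl (50 mM) with ovalbumin, ATP-MgCl2, DTT / Controls: wells without proteasome as full block, compound-free enzyme plus substrate as uninhibited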
Calb FLC – affects C. albicans growth with fluconazole; hit rate 0.57% among 300,000; growth inhibition, % (test concentration not listed); C. albicans CaCi-2 (fluconazole-resistant clinical isolate) + fluconazole, Alamar Blue growth, 48 h; AID 1979;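 active means most replicates above 75%; inconclusive means exactly half above 75%; inactive means most below 75%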;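 further: all wells also contain fluconazole at 8 µg/ml as a sub-toxic cotreatment; 0% = median of DMSO wells and 100% = median of geldanamycin control wells; wells of about 8 µL received 7.5 nL stock; the first replicate is given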
A1 inh – inhibitors of the anti-apoptotic protein A1, read as caspase activation; MEF A1-2A-BIM cells, Caspase-Glo 3/7 luminescence, 3 h; percent of clofoctol response, vehicle zero; caspase activation, % (no concentration beside the values); hit rate 0.066% among 330,000; AID 2462;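 active means over half of replicate activation scores above 10%, or exactly half above 10 with the replicate mean above 10; inconclusive means replicate mean below 10 yet half the replicates above 10; inactive means over half of replicates below 10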;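 further: wells of about 30 µL received 50 nL stock; many hits fall short of the cut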
Beta cell apopt – blocks beta cell apoptosis; protection from apoptosis, % (test concentration not listed); INS-1E cytokine-induced death, ATP luminescence, 48 h; percent of positive-control rescue, neutral wells zero; AID 435005; hit rate 0.8% among 300,000;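 active means all replicates at 75% or more, or half of them and the mean; inconclusive means half reach 75% but not the mean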;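 further: 0% = cytokine-treated negative control wells and 100% = positive control rescue; higher means more ATP so stronger rescue from cytokine killing; wells of about 40 µL received 100 nL stock; the first replicate is given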
LANA-H2B inh – blocks KSHV LANA binding to histone H2A/H2B; Q9QR71; cell-free LANA-H2A/H2B peptide, fluorescence polarization; inhibition, % (concentration not given with the values); hit rate 0.6% among 320,000; in the data active means inhibition mostly above about 10%, no sharp cut-off; inactive means mostly below about 6.7%;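 further: stock transfer was 7.5 nL into about 10 µL; 0% = median of vehicle wells and 100% = median of positive control wells; one replicate is shown; the record names a cut of 25% in any replicate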
RanGTP-Imp inh – disruptors of Ran-importin-beta complex formation – biochemical, FRET, CFP-Ran, YFP-importin-beta, homogeneous, primary screen; cell-free CFP-Ran/YFP-importin-beta FRET ratio; hit rate 1.1% among 300,000; inhibition, % (test concentration not listed); AID 2216;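 active means most replicates above 15%; inconclusive means exactly half above 15%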;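 further: 0% = DMSO wells and 100% = Ran loaded with GDP instead of GTP; wells of about 40 µL received 100 nL stock; the first replicate is given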
* marks the source's active call; other numbers are inactive results.

What do the screens show for `COc1cc2c(-c3ccccc3)c(C)oc2cc1/C=N/NC(N)=S`?
T cruzi inh: 89*; B2AR ag: -5; Calb FLC: 1; A1 inh: 6.7*; Beta cell apopt: 5; LANA-H2B inh: 0.8; RanGTP-Imp inh: -1.7

What do the screens show for `O=C1C2C(C(=O)N1/N=C/c1cc(Br)cc([N+](=O)[O-])c1O)C1C=CC2C12CC2` (stereo not given)?
T cruzi inh: 23; B2AR ag: 12; Calb FLC: 11; A1 inh: 0.4; Beta cell apopt: -6; LANA-H2B inh: 6.5; RanGTP-Imp inh: -4.1

How did CCOC(=O)c1sc(=S)n(-c2ccc(Cl)cc2)c1SC do in these assays?
T cruzi inh: -11; B2AR ag: -1; UCH37 DUB inh: -1.4; Calb FLC: inconclusive; A1 inh: 0.0; Beta cell apopt: -3; LANA-H2B inh: 3.9; RanGTP-Imp inh: -5.4

Results for CCC1(c2ccc(OC)cc2)NC(=O)N(CC(=O)NC2CCCCC2C)C1=O (stereo not given) ?
B2AR ag: -7; UCH37 DUB inh: 4.6; A1 inh: 0.6; Beta cell apopt: 0; LANA-H2B inh: -3.3

How did O=C(Nc1ccc(S(=O)(=O)Nc2ncccn2)cc1)c1ccc(Cl)c([N+](=O)[O-])c1 do in these assays?
T cruzi inh: 1; B2AR ag: -3; UCH37 DUB inh: 4.1; Calb FLC: -3; A1 inh: 1.0; LANA-H2B inh: -1.9; RanGTP-Imp inh: 1.6

What do the screens show for `COc1cccc(N2CCN(S(=O)(=O)c3ccc(CN4C(=O)c5cccnc5C4=O)cc3)CC2)c1`?
T cruzi inh: 1; B2AR ag: -5; UCH37 DUB inh: 0.3; Calb FLC: 3; A1 inh: -0.3; Beta cell apopt: 3; LANA-H2B inh: -1.6; RanGTP-Imp inh: -3.5

How did COc1ccccc1C(=O)N=C1NC(=O)CC2C(=O)NCCN12 (stereo not given) do in these assays?
T cruzi inh: -3; B2AR ag: 17; UCH37 DUB inh: -1.7; Calb FLC: -13; A1 inh: 0.0; Beta cell apopt: -5; LANA-H2B inh: -1.5; RanGTP-Imp inh: -0.5

What do the screens show for `COc1ccccc1OCC(=O)N1CCCCCCC1`?
T cruzi inh: 3; B2AR ag: -2; UCH37 DUB inh: 0.0; Calb FLC: -1; A1 inh: 1.1; Beta cell apopt: -2; LANA-H2B inh: 1.3; RanGTP-Imp inh: 2.8

What do the screens show for `Cc1ccc(NC2=NCC(=O)N2C2CCCC2)c(C)c1`?
T cruzi inh: -13; B2AR ag: 0; UCH37 DUB inh: 4.0; Calb FLC: 15; A1 inh: 1.6; Beta cell apopt: 3; LANA-H2B inh: 1.7; RanGTP-Imp inh: -2.6

Results for Cc1ccc(NC(=O)/C=C2\NC(=O)CS2)cc1 ?
T cruzi inh: 13; B2AR ag: 3; UCH37 DUB inh: 3.2; Calb FLC: 1; A1 inh: 0.7; Beta cell apopt: -2; LANA-H2B inh: -0.4; RanGTP-Imp inh: -1.2

Results for O=C(NCC1CCCO1)c1ccccc1-c1nc(-c2ccccc2F)no1 (stereo not given) ?
T cruzi inh: 9; B2AR ag: -7; UCH37 DUB inh: 2.3; A1 inh: 0.2; Beta cell apopt: 2; LANA-H2B inh: 0.0; RanGTP-Imp inh: -1.1

Results for O=C(Cc1noc2ccccc12)NNC(=S)Nc1ccccc1 ?
T cruzi inh: -11; B2AR ag: 0; UCH37 DUB inh: 3.9; Calb FLC: 3; A1 inh: 0.3; Beta cell apopt: 0; LANA-H2B inh: -2.5; RanGTP-Imp inh: inconclusive

What do the screens show for `COc1cc(/C=C2\SC(=O)N(CCNC(=O)c3cnc(C)cn3)C2=O)cc(OC)c1OC`?
T cruzi inh: 12; B2AR ag: 3; UCH37 DUB inh: 3.2; Calb FLC: -3; A1 inh: 0.6; Beta cell apopt: -8; LANA-H2B inh: 4.8; RanGTP-Imp inh: 1.7

Results for COc1ccc(N(C(=O)Cc2cccs2)C(C(=O)NC2CCCC2)c2ccncc2)cc1 (stereo not given) ?
T cruzi inh: 17; B2AR ag: -5; UCH37 DUB inh: 1.9; Calb FLC: -2; A1 inh: -0.7; Beta cell apopt: -3; LANA-H2B inh: -4.9; RanGTP-Imp inh: -1.8

How did COCCC(=O)N1CCC(Oc2ccc(C(=O)N3CCCCCC3)cc2)CC1 do in these assays?
T cruzi inh: -7; B2AR ag: 5; UCH37 DUB inh: 5.8; Calb FLC: 31; A1 inh: 0.5; Beta cell apopt: 8; LANA-H2B inh: 3.2; RanGTP-Imp inh: 2.2

What do the screens show for `Cc1ccc2nc(SCC(=O)NC3CC3)[nH]c2c1`?
T cruzi inh: -8; B2AR ag: 4; UCH37 DUB inh: 0.6; Calb FLC: 0; A1 inh: 0.4; Beta cell apopt: 1; LANA-H2B inh: 4.2; RanGTP-Imp inh: -3.5

Results for CN(C)c1ccc(CNc2nc(-c3ccccc3)nn2S(C)(=O)=O)cc1 ?
T cruzi inh: -2; B2AR ag: -7; UCH37 DUB inh: 5.6; Calb FLC: -5; A1 inh: -0.7; Beta cell apopt: -3; LANA-H2B inh: -4.2; RanGTP-Imp inh: -1.1

What do the screens show for `CCN(CC)S(=O)(=O)c1ccc2c(c1)nc(SCC(=O)NCC1CCCO1)n2CC` (stereo not given)?
T cruzi inh: -6; B2AR ag: 4; UCH37 DUB inh: 1.1; Calb FLC: 0; A1 inh: -0.3; Beta cell apopt: 2; LANA-H2B inh: -3.0; RanGTP-Imp inh: 2.9

How did Cc1ccsc1/C=N/NC(=O)c1ccc2ccccc2c1 do in these assays?
T cruzi inh: -5; B2AR ag: 2; Calb FLC: 0; A1 inh: -1.5; Beta cell apopt: -1; LANA-H2B inh: -0.7; RanGTP-Imp inh: -6.2

What do the screens show for `CC(=O)Nc1ccc(S(=O)(=O)NCCc2cc3c(C)ccc(C)c3[nH]c2=O)cc1`?
T cruzi inh: -16; B2AR ag: 8; UCH37 DUB inh: -1.8; Calb FLC: 1; A1 inh: 1.4; Beta cell apopt: -4; LANA-H2B inh: -1.2; RanGTP-Imp inh: 6.2

Results for CCOC(=O)N1CCN(C2=CC(=O)OC23CCCCC3)CC1 ?
T cruzi inh: 4; B2AR ag: 8; UCH37 DUB inh: 2.6; Calb FLC: 0; A1 inh: 0.0; Beta cell apopt: -1; LANA-H2B inh: -14; RanGTP-Imp inh: -1.9

What do the screens show for `CCCCn1c(=O)n(CC(=O)Nc2ccc(OC)c(Cl)c2)c(=O)c2c1nc(CO)n2CCC`?
T cruzi inh: 8; B2AR ag: -1; UCH37 DUB inh: 0.4; Calb FLC: -3; A1 inh: 0.6; Beta cell apopt: -1; LANA-H2B inh: -0.5; RanGTP-Imp inh: 0.9

What do the screens show for `O=C(CSc1n[nH]c(-c2ccccc2Cl)n1)NC1CCCCC1`?
T cruzi inh: -8; B2AR ag: -3; UCH37 DUB inh: 6.9; Calb FLC: -1; A1 inh: -0.6; Beta cell apopt: -6; LANA-H2B inh: -2.8; RanGTP-Imp inh: 6.3

What do the screens show for `CCC(=O)Nn1c(C2CCC2)nc2ccccc2c1=O`?
T cruzi inh: 6; B2AR ag: 3; UCH37 DUB inh: -0.8; Calb FLC: -14; A1 inh: 0.7; LANA-H2B inh: 0.8; RanGTP-Imp inh: 8.3

Results for COc1ccc(C(=O)n2cc(C(=O)c3cc(C)ccc3O)cn2)cc1OC ?
T cruzi inh: -4; B2AR ag: 11; UCH37 DUB inh: -33; Calb FLC: 0; A1 inh: 0.4; Beta cell apopt: -12; LANA-H2B inh: -1.9; RanGTP-Imp inh: 0.1

What do the screens show for `CCc1c(C(=O)Nc2ccc(OC)c(Cl)c2)[nH]c(C)c1C(C)=O`?
T cruzi inh: 29; B2AR ag: 3; UCH37 DUB inh: -0.2; Calb FLC: -5; A1 inh: 0.2; Beta cell apopt: 0; LANA-H2B inh: 2.7; RanGTP-Imp inh: 7.1

How did O=C(NC1CC1)C1CCN(C(=O)c2ccc(Cl)cc2Cl)CC1 do in these assays?
T cruzi inh: -3; B2AR ag: 2; UCH37 DUB inh: 3.1; Calb FLC: -9; A1 inh: -0.1; Beta cell apopt: 3; LANA-H2B inh: -2.3; RanGTP-Imp inh: 2.6

How did Cc1c(Cl)cccc1NC(=S)N(CCN(C)C)C(C)c1ccccn1 (stereo not given) do in these assays?
T cruzi inh: 9; B2AR ag: -1; UCH37 DUB inh: 0.1; Calb FLC: -3; A1 inh: -0.3; Beta cell apopt: -6; LANA-H2B inh: 5.4; RanGTP-Imp inh: -4.0

Results for Cc1cccc(C)c1NS(=O)(=O)c1c(C)[nH]c(=O)[nH]c1=O ?
T cruzi inh: 5; B2AR ag: 2; UCH37 DUB inh: 5.5; Calb FLC: -6; A1 inh: -0.8; Beta cell apopt: 1; LANA-H2B inh: 2.2; RanGTP-Imp inh: -0.1

What do the screens show for `COCCCNC(=O)CS(=O)Cc1nc(-c2cccc(OC)c2)oc1C` (stereo not given)?
T cruzi inh: -16; B2AR ag: 1; UCH37 DUB inh: -2.6; Calb FLC: 5; A1 inh: -1.1; Beta cell apopt: 2; LANA-H2B inh: 7.0; RanGTP-Imp inh: 3.7

How did Cc1nn(-c2ccccc2)c(Cl)c1C(=O)NCC(C)c1ccccc1 (stereo not given) do in these assays?
T cruzi inh: 18; B2AR ag: 0; UCH37 DUB inh: 2.0; Calb FLC: -6; A1 inh: 0.1; Beta cell apopt: 27; LANA-H2B inh: 4.6; RanGTP-Imp inh: -0.4

Results for Cc1cc(C)n(C(=O)c2cc(F)c(F)cc2C)n1 ?
T cruzi inh: -19; B2AR ag: -2; UCH37 DUB inh: 4.1; Calb FLC: -3; A1 inh: 0.2; Beta cell apopt: -5; LANA-H2B inh: -9.0; RanGTP-Imp inh: 6.0

What do the screens show for `O=C(CCCC(=O)N1CCN(c2ccccc2F)CC1)N1CCN(c2ccccc2F)CC1`?
T cruzi inh: 2; B2AR ag: -7; UCH37 DUB inh: 1.7; Calb FLC: -2; A1 inh: 1.2; Beta cell apopt: -1; LANA-H2B inh: 3.0; RanGTP-Imp inh: 3.1

How did COc1cc(CCc2ccc3c(c2)OCO3)oc(=O)c1 do in these assays?
T cruzi inh: -18; B2AR ag: -10; UCH37 DUB inh: 3.7; Calb FLC: -3; A1 inh: -1.4; LANA-H2B inh: 3.2; RanGTP-Imp inh: 0.5

Results for CCOC(=O)c1nn(-c2ccccc2)c(-c2ccccc2)c1C(=O)c1ccccc1 ?
T cruzi inh: 19; B2AR ag: 9; UCH37 DUB inh: -3.1; Calb FLC: -9; A1 inh: 0.9; Beta cell apopt: 1; LANA-H2B inh: 4.8; RanGTP-Imp inh: 3.2

Results for Nc1nc2sc3c(c2c(=O)s1)CCCC3 ?
T cruzi inh: 1; B2AR ag: -4; UCH37 DUB inh: 4.9; Calb FLC: 29; A1 inh: -0.7; Beta cell apopt: -1; LANA-H2B inh: -0.6; RanGTP-Imp inh: -0.5

No enrichment for hits; 4.3% or so of the library scored in one or more.
